# Menin-MLL FL inh – displaces fluorescein MLL peptide from human menin; Fluorescence polarization, fluorescein-MLL peptide displacement from menin; FP activity change, % at 61.4 µM; 290,000 tested, under 10 active; AID 1766; inconclusive = falling polarisation curve, or a change in total fluorescence; inactive = total fluorescence flat and polarisation flat or rising; no compound was filed as active; the % refers to the polarisation; negative = inhibition;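 note: % of control where 0% means no effect; inhibitors lower the polarisation; unlabelled MLL peptide was the positive control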
# gsp antag – gsp mutant antagonism; gsp-mutant cells, cAMP HTRF, 30 min; control for the full effect not named in the record; Potency, µM (series often up to 76.9 µM), for the others: top-dose activity change, negative = inhibition, hits mostly inhibitors; 340,000 compounds, 0.4% hits; active = falling curve of any shape with a large fitted effect; inconclusive = falling curve, mostly with a smaller effect; inactive = flat or rising curve; cell line not stated here;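 note: intracellular cAMP measured with PDE inhibitor Ro 20-1724 present during compound exposure; potency is the fitted concentration of half-maximal effect; % is set by controls: 0 for no effect and ±100 for the full control effect; nearly all actives have a fitted effect of over 65% in size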
#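 Cells, 2000/well, grown 16–24 h in DMEM 10% FBS with 0.5 mg/ml G418, then compounds plus […] (300 uM addition stock), 30 min at 37C. cAMP read by HTRF (cAMP-d2 and anti-cAMP antibody-K in lysis buffer) after 30 min RT.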
# PINK1 modulator – PINK1 expression modulation; Potency, µM (highest dose often 76.6 µM), for the others: top-dose activation (PINK1 increase), actives largely listed as activators; 410,000 compounds, 0.2% hits; PINK1 immunofluorescence, high-content cytometry, 24 h; AID 624263; active = well fitted activation curve with a large enough effect; inconclusive = small, poorly fitted or top-dose-only effect; inactive = flat fitted curve, though single readings scatter; cell line not stated here;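 note: potency is the fitted concentration of half-maximal effect; % of control where 0% means no effect; nearly all actives have a fitted effect of over 65% in size; a mitochondrial uncoupler was the plate control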
#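 Readout is PINK1 immunofluorescence, quantified alongside mitochondrial, cell and nuclear markers by laser-scanning microplate cytometry. Cells from a stable line were exposed to compound titrations (5 concentrations) for 24 hours, with CCCP controls.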
# ClpP mod – qHTS Assay for Activators of ClpP; ATP-dependent Clp protease proteolytic subunit (Bacillus subtilis (strain 168)), P80244; AID 651965, 2013; 340,000 compounds, 1.9% hits; purified B. subtilis ClpP, FRET peptide cleavage, 20 min; Potency, µM (highest dose often 57.5 µM), inactives show top-dose activity change, negative = active; active = well fitted falling curve with a large enough effect; inconclusive = small, poorly fitted or top-dose-only effect; inactive = no such curve, though single readings can be large or run the other way; note: potency is the fitted concentration of half-maximal effect; the source files actives as falling curves though it sought activators and does not explain the sign; nearly all actives have a fitted effect of over 65% in size; many hits overshoot -100%
# Target sequence (P80244 whole entry, looked up): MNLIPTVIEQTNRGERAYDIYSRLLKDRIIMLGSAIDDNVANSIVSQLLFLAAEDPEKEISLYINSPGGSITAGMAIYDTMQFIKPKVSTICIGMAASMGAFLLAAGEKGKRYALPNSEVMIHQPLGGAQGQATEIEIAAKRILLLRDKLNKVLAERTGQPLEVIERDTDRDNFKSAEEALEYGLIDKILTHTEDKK
#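 Purified B. subtilis ClpP, 10 microg/mL final in Tris/HCl pH8 with KCl, BSA, glycerol and Tween-20, cleaved an Abz/nitrotyrosine-quenched decapeptide. Fluorescence (ex 320, em 430) was read at 0 and 20 min at room temperature. Delta was normalized to 5.8 microM ADEP and DMSO/no-enzyme controls.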
# gsp ag – gsp mutant agonism; AID 624287; gsp mutant cells, cAMP HTRF, 30 min; control for the full effect not named in the record; Potency, µM (highest dose often 76.9 µM), without a hit: top-dose activation (cAMP increase), hits mostly activators; 340,000 compounds, 0.13% hits; active = well fitted activation curve with a large enough effect; inconclusive = small, poorly fitted or top-dose-only effect, or another doubt; inactive = no such curve, though single readings can be large or run the other way; cell line not stated here;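 note: phosphodiesterase inhibitor Ro 20-1724 added with compounds to block cAMP breakdown; potency is the fitted concentration of half-maximal effect; nearly all actives have a fitted effect of over 60% in size; about a fifth of the inactives were tested at one dose only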
#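 Cells in DMEM/10% FBS with G418 were pretreated with compounds in DMSO plus […] (300 uM stock) for 30 min at 37C. cAMP was measured by HTRF (cAMP-d2 plus anti-cAMP antibody-K) after 30 min at room temperature.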
# D2 ag – human D2 receptor agonism in beta-arrestin assay. DiscoveRx PathHunter D2 beta-arrestin, luminescence, 90 min; 100% = 57 uM dopamine signal. activation, % (test concentration not listed). 360,000 compounds, 0.084% hits; in the data active = activation above about 40%; inconclusive = about 15% to 40%; inactive = below about 15%; note: compound concentration not given in the record; the text of the record calls up to 30% inactive
# Target sequence (P14416 whole entry, looked up): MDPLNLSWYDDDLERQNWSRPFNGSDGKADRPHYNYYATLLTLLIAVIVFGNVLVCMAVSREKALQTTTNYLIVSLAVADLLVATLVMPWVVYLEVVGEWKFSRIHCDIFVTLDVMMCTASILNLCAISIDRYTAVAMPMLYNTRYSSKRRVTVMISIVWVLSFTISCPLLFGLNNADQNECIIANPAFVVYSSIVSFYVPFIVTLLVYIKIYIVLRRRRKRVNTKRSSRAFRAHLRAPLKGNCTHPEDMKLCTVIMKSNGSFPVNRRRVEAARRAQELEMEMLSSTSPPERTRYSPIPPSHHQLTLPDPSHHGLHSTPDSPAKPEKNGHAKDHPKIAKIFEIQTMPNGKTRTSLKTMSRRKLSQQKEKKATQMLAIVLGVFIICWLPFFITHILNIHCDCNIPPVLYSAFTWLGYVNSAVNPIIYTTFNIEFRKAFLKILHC
#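 Agonist mode: compounds alone added to overnight-plated D2 PathHunter cells for 90 min at 37 C, with 57 uM final dopamine (EC100) defining full response. Beta-arrestin recruitment detected by chemiluminescent reagent, read after 1 h at ambient temperature.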
# Sfp PPTase inh – blocks B. subtilis Sfp PPTase activity | Q9F4F7 | Biochemical Sfp PPTase activity, qHTS | Potency, µM, without a hit: max response, negative = inhibition, usual class: inhibitors | 310,000 compounds, 3.5% hits | AID 1490; active = well fitted inhibition curve with a large enough effect; inconclusive = small, poorly fitted or top-dose-only effect, or another doubt; inactive = no such curve, though single readings can be large or run the other way;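 note: the enzyme is Sfp with the accession as filed and its product quenches rhodamine fluorescence; potency is the fitted concentration of half-maximal effect; 0% = enzyme reaction without inhibitor and -100% = no enzyme wells; top concentration of the series not given in the record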
#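 Step 1, compound plus 15 nM Sfp-PPTase, 15 min, room temperature. Step 2, add rhodamine-CoA (5 uM) and BHQ-2-YbbR (12.5 uM). Step 3, read 525/598 nm fluorescence at 0 and 30 min.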
# Starred values were filed as active, the others as inactive; ? = inconclusive; / = no result given; [ ] = another dose, or the depositor's remark.
SMILES,Menin-MLL FL inh,gsp antag,PINK1 modulator,ClpP mod,gsp ag,D2 ag,Sfp PPTase inh
CCN(CC)CCCN(Cc1cc2cc3c(cc2[nH]c1=O)OCO3)C(=S)NCCCOC,-7.9,6.4%,-0.3%,-2.5%,0.2%[15.4 µM],-3.2,20.8%
Cc1cc(C(C#N)c2ccccc2F)n2ncnc2n1 (stereo unspecified),-0.7,1.3%,-0.8%,/,15.9%[15.4 µM],-2.9,-9.9%
CC(C)NS(=O)(=O)c1ccc(CCC(=O)Nc2cc(Cl)ccc2Oc2ccccc2)cc1,-1.6,?,10.6%,6.7%,7.3%,-1.8,17.7%
O=C(Nc1ccccc1)c1cccc(N2C(=O)C3C4C=CC(C4)C3C2=O)c1 (stereo unspecified),/,-6.2%,5.4%,1.4%,-41.9%[inhibitor],-3.8,-2.8%
Cc1cccc(N=C2NC(=O)c3cc([N+](=O)[O-])ccc32)c1,1.1,-6.9%,-0.2%,/,-1.0%[15.4 µM],8.1,11.3%
C=CCn1c(C)cc(C(=O)CSc2nnc(NCc3ccccc3)s2)c1C,2.5,1.4%,8.3%[38.3 µM],1.0%,-44.4%[inhibitor],-3.2,?
COc1cccc(C(C)NC(=O)Nc2cccc(C(F)(F)F)c2)c1 (stereo unspecified),-1.2,-3.3%,-0.1%,-0.9%,12.3%,0.9,41.2%
CCOC(=O)C1CCN(C(=O)COC(=O)c2ccc(Br)o2)CC1,2.2,12.6%,0.0%,0.9%,-5.7%,-4.2,9.1%
COc1cc2cc(CN(Cc3ccc4c(c3)OCO4)C(=O)c3ccco3)c(=O)[nH]c2cc1OC,/,-1.8%,-7.8%[38.3 µM],?,?,0.8,/
COC(=O)c1ccc([C@H](NC(=O)c2ccco2)[C@]2(C)C[C@H]2C2CCCCC2)cc1,/,-2.9%,9.8%,0.9%,/,-1.9,/
Cn1c(SCC(=O)NC2CC2)nnc1-c1ccc(Cl)cc1,/,-0.8%,-0.9%,-4.0%,16.9%,-2.7,/
Cc1c(C(=O)N2CCOCC2)sc2nc(-c3ccccc3)cn12,4.6,15.0%,0.6%,-0.5%,3.4%,-2.7,7.7%
CCOC(=O)c1c(C)noc1CP(=O)(c1ccccc1)c1ccccc1,2.4,14.4%,0.4%,0.2%,9.4%,-2.3,4.4%
COC(=O)c1cccc(CSc2nnc(C)s2)c1,?,10.6%,5.8%[38.3 µM],0.8%,-38.3%[inhibitor],-0.4,7.8%
CCCCCc1ccc(-c2ccc(OCC)cc2)nc1,-1.8,17.0%,8.6%,/,-1.8%[15.4 µM],-3.6,4.8%
COc1cc(/C=C/C(=O)OCC(=O)NC(=O)NC2CCCC2)ccc1OCC#N,/,9.6%,0.4%,-27.0%,-8.8%,-0.5,/
CCOc1ccc(Br)cc1S(=O)(=O)Nc1cccc(S(=O)(=O)N2CCOCC2)c1,/,-13.0%,0.3%,-0.7%,-1.5%,6.2,/
COc1ccc(C(=O)Nc2c3c(nn2-c2cccc(Cl)c2)CS(=O)C3)cc1 (stereo unspecified),4.5,-5.0%,-0.7%,0.9%,-3.5%,-1.7,11.5%
Cc1ccc(C)c(NC(=O)C(OC(=O)c2cnc(C)cn2)c2ccccc2)c1 (stereo unspecified),/,10.6%,-1.5%,91.8%,-21.6%,-2.3,/
Cc1ccc(C(=O)NNC(=O)C(NC(=O)c2cccc(C)c2)C(C)C)cc1 (stereo unspecified),/,12.9%,3.1%,0.3%,0.7%,-3.9,/
COc1ccc(CCNC(=O)c2cc(-c3ccco3)on2)cc1OC,0.2,-1.3%,15.3%,/,1.1%[15.4 µM],-2.0,6.6%
CC1(C)C[C@H]2C3=CCC4[C@@]5(C)CC[C@H](O)[C@@](C)(CO)C5CC[C@@]4(C)[C@]3(C)C[C@@H](O)[C@@]2(CO)[C@@H](O)[C@@H]1O (stereo partly specified),/,2.4%,4.5%,2.7%,/,-0.8,/
Cc1ccc(C(=O)NCC(=O)NCc2ccc(Cl)cc2)s1,/,2.7%,-2.2%,/,-17.4%,-1.3,/
CC1CCCN(C(=O)C2CC(=O)N(c3ccc(Cl)cc3)C2)C1 (stereo unspecified),1.8,3.6%,-1.8%,/,16.6%,-2.0,-7.1%
COc1ccc(CN(C2CCCCC2C)S(=O)(=O)c2ccc(S(=O)(=O)N(C)C)cc2)cc1OC (stereo unspecified),1.0,-5.0%,-0.6%,-3.6%,-34.9%[inhibitor],0.8,-1.4%
Cc1ccc2[nH]c3c(=O)n(CCC4=CCCCC4)cnc3c2c1,0.4,10.5%,15.2%,-12.7%,-3.8%,-4.2,-1.8%
O=C(NCc1ccccc1)C(c1ccco1)N(C(=O)c1csnn1)C1CC1 (stereo unspecified),3.4,0.9%,3.1%,/,?,5.6,4.3%
C=CCNC(=O)c1ccc(Cn2c(=S)[nH]c3cc4c(cc3c2=O)OCO4)cc1,2.1,29.5%,16.8%[38.3 µM],-3.9%,4.9%,0.7,25.9%
COc1cc(-c2cc(-c3ccc(F)cc3)nc(N)c2C#N)ccc1O,1.8,/,9.9%,/,-9.0%[15.4 µM],0.9,10.4%
COc1ccc(CCN(C)CCC(=O)Nc2c(C)cc(C)cc2C)cc1OC,0.3,19.2%,6.0%,-1.5%,-7.2%,-4.1,-0.8%
CCOC(=O)N1CCC(N2CCCC(CO)(Cc3cccc(OC)c3)C2)CC1 (stereo unspecified),0.1,-27.8%,1.0%,1.5%,-0.4%,-0.5,0.3%
COC(=O)c1c(-c2ccsc2)oc2ccc(-c3cc(OC)c(OC)c(OC)c3)cc12,/,4.9%,1.9%,4.0%,33.6%,0.0,/
C=C(NS(=O)(=O)c1ccc(C)cc1)C(=O)OC,/,9.5%,-0.7%,-1.2%,/,-1.9,/
COc1cc(C(=O)Nc2ccc3ccccc3c2)cc(OC)c1OC,-3.0,-5.0%,1.6%,/,0.1%,2.3,-1.0%
O=C(Nc1nc2c(F)cccc2s1)C1CC1,0.4,-3.1%,-0.8%,2.4%,-59.6%[inhibitor],3.2,-11.9%
Cc1ccc(C2/C(=C(\O)c3cnn(-c4ccccc4)c3C)C(=O)C(=O)N2CCN(C)C)o1 (stereo unspecified),0.3,-3.2%,0.4%,-0.9%,-17.7%,-1.5,?
COC(=O)c1ccc(C2/C(=C(\O)c3ccc4c(c3)OCCO4)C(=O)C(=O)N2CCCN2CCOCC2)cc1 (stereo unspecified),/,9.1%,-0.8%,/,?,0.6,8.8%
COc1cc(/C=C/C(=O)OCC(=O)Nc2ccc3c(c2)OCCO3)ccc1OCC#N,12.1,5.6%,7.8%,272.4%,-4.6%,-1.7,6.0%
CC(C)C1C(=O)N(Cc2cn(Cc3ccco3)nn2)CCS(=O)(=O)N1Cc1ccc(-c2cccc(N(C)C)c2)cc1 (stereo unspecified),/,/,1.0%,?,-31.8%[inhibitor],1.8,/
COc1cccc(N2CCN(C(=O)CCC(=O)c3ccc(Cl)s3)CC2)c1,/,-18.7%,0.0%,0.8%,25.2%,-0.4,/
CCS(=O)(=O)N1CCC(C(=O)NCc2cccc(OC)c2)CC1,-1.0,15.6%,-3.1%,0.3%,23.1%,2.4,19.0%
O=C(CC(O)(c1ccccc1)C(F)(F)C(F)F)c1cccs1 (stereo unspecified),-0.6,-11.4%,2.5%[38.3 µM],0.7%,-70.2%[inhibitor],-1.0,-2.8%
Cc1ccc(C(=O)NC(C(=O)Nc2ccccc2)c2ccccc2)cc1 (stereo unspecified),0.5,6.4%,3.8%,-1.6%,2.0%,-1.0,22.3%
CCn1c(SCC(=O)Nc2cccc(F)c2)nc2c(c1=O)SC(C)C2 (stereo unspecified),2.1,-2.5%,1.6%,0.0%,14.1%,-0.5,0.5%
COc1ccc(OC)c(NC(=O)C23CCC(C)(C(=O)C2)C3(C)C)c1 (stereo unspecified),-0.3,-3.7%,-0.3%,-2.2%,?,-1.0,3.5%
COc1cccc(C2N(Cc3ccccc3)C(=O)C2(F)F)c1OC (stereo unspecified),/,-9.8%,-0.4%,/,1.1%[15.4 µM],1.6,10.2%
COc1ccccc1C1=NOC(C)(c2sc(-c3ccc(Cl)cc3)nc2C)C1 (stereo unspecified),-1.0,2.1%,-0.5%,?,/,-3.1,-2.6%
CCn1cc(/C=C(\NC(=O)c2ccc(C)cc2)C(=O)NCCN2CCOCC2)c2ccccc21,10.0,-18.0%,0.5%,0.4%,-78.6%[inhibitor],-7.2,-15.0%
COc1ccc(/C(O)=C2\C(=O)C(=O)N(CCN(C)C)C2c2cccc(OC)c2OC)cc1 (stereo unspecified),2.2,-5.2%,-0.3%,-0.1%,16.4%[15.4 µM],-2.2,18.2%
Cc1cccnc1NC(=O)CCNC(=O)c1ccccc1Cl,/,6.8%,-0.2%,-2.3%,-27.5%,2.3,9.2%
CCOC(=O)N1CCN(C(=O)C(NC(=O)c2ccc(CC)cc2)C(C)C)CC1 (stereo unspecified),6.9,1.9%,/,0.4%,-90.4%[inhibitor],-3.5,-1.2%
Cn1cc([N+](=O)[O-])c(C(=O)N(Cc2ccccc2)Cc2ccccc2)n1,3.4,-0.9%,-1.1%,1.9%,2.5%[15.4 µM],1.6,-10.2%
Cc1ccc(SCC(=O)Nc2ccc(N3CCOCC3)cc2)c(C)c1,-3.0,8.0%,0.8%,0.3%,8.8%,-4.0,-5.2%
O=C(O)COc1ccc(/C=C/c2ccc3cccc([N+](=O)[O-])c3n2)cc1,10.0,0.1%,-4.1%,-0.8%,7.5%[15.4 µM],-5.4,-9.5%
CCOC(=O)c1c(C)[nH]c(C(=O)COC(=O)CSC)c1C,4.3,12.4%,-1.4%,-1.0%,3.3%,-3.8,18.7%

# Screening results (PubChem BioAssay)
